DT40 TDP1 CPT: qHTS for Inhibitors of human tyrosyl-DNA phosphodiesterase 1 (TDP1): qHTS in cells in presence of CPT; chicken DT40 Tdp1-/-;hTDP1 cells + 20 nM CPT, ATP luminescence, 48 h; Potency, µM (doses to about 46.2 µM), for inactives: at the highest dose activity change, negative = growth inhibition, actives largely listed as inhibitors; 12% of 420,000 active; note: nearly all actives have a fitted effect of over 55% in size
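Cell growth measured by CellTiter-Glo luminescence after a minimum 48 h, 37 C compound exposure with 20 nM CPT in Tdp1-knockout DT40 cells stably expressing hTDP1, seeded 400/well; qHTS titration format.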
GCN5L2 inh: qHTS Assay for Inhibitors of GCN5L2; Potency, µM (titrated, usually from 58.9 µM), inactives show at the top dose activity change, negative = inhibition, hits mostly inhibitors; 0.21% of 390,000 active; GCN5L2 HAT assay, ThioGlo1 CoA-SH fluorescence; AID 504327, 2011
Target sequence (Q92830 whole entry, looked up): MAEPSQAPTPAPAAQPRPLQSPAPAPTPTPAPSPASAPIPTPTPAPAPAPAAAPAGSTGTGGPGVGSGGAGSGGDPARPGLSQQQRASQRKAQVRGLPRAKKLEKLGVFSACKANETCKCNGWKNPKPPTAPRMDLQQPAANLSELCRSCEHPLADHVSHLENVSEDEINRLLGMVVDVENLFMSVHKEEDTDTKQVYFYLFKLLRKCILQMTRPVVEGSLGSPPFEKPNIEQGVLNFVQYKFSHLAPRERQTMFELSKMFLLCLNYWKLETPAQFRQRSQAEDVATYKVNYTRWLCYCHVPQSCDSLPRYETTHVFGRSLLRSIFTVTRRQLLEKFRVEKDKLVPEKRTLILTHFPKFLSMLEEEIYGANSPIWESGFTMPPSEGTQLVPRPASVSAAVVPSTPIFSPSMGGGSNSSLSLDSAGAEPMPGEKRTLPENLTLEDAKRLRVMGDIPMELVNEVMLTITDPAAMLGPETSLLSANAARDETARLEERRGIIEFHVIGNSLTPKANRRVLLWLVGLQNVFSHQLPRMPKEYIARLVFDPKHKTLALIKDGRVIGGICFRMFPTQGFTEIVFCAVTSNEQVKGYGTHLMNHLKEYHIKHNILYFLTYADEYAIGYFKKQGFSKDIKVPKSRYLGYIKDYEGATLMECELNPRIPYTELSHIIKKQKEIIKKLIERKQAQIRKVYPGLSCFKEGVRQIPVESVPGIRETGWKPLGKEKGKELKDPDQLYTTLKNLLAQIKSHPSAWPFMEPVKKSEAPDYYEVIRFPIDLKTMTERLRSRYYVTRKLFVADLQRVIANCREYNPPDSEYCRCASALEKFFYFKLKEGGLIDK
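Fluorescence readout, Ex340nm/Em540nm: ThioGlo1 (50uM final) reacts with free CoA thiol released as 20nM GCN5L2 acetylates H3(1-25) peptide (75uM) using acetyl-CoA (70uM). Compound and enzyme sat 15 min beforehand; 20 min room-temperature reaction.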
* = called active by the depositor; ? = inconclusive; & = joins results of further samples. Calls come from the whole dose curve; as a rule, active = well fitted curve in the direction sought with a large enough effect; inconclusive = small, poorly fitted or top-dose-only effect, or another doubt; inactive = no such curve, though single readings can be large; an effect the other way counts as inactive or inconclusive. % is set by controls: 0 for no effect and ±100 for the full control effect; potency is the fitted concentration of half-maximal effect.

mol	DT40 TDP1 CPT	GCN5L2 inh
O=C(O)CCC(=O)N1N=C(c2ccccc2)CC1c1ccc2c(c1)OCO2 (stereo unspecified)	-3%	3%
C=Cn1cc[n+](CC(=O)c2ccc(Cl)cc2)c1	?	?
CCCC(C(=O)Nc1cc(S(=O)(=O)N2CCOCC2)ccc1OC)c1ccccc1 (stereo unspecified)	12%	-2%
COc1ccc(-c2ccccc2)cc1NCc1ccc(OC)c(OC)c1	-11%	-11%
COc1ccc(CCNC(=O)CSc2nnc(-c3ccc(F)cc3)o2)cc1OC	-22%	-1%
COc1ccc(Oc2c(C)oc3cc(OC(=O)N4CCOCC4)ccc3c2=O)cc1	-1%	-1%
O=c1c2cnn(-c3ccccc3)c2ncn1Cc1ccccc1F	-6%	2%
COc1ccc2oc(C(=O)N(CC(C)C)C3CCS(=O)(=O)C3)c(C)c2c1 (stereo unspecified)	?	-1%
CN(CC(=O)NCc1ccc(F)cc1)S(=O)(=O)c1ccc2c(c1)n(C)c(=O)c(=O)n2C	0%	-4%
COCCCn1nnnc1SCC(=O)N1CCN(C(=O)c2ccco2)CC1	-5%	12%
COc1ccc(C2CC(c3ccccc3)=NN2C(=O)COC(=O)c2cc(S(=O)(=O)N3CCOCC3)ccc2Cl)cc1 (stereo unspecified)	-23%	-2%
COc1ccccc1C(=O)NCC(=O)OCc1ccc(Br)cc1	5%	1%
Cc1nc2c(=O)n(-c3ccc(F)cc3F)nc(C)c2s1	5%	-5%
Cc1nc(-c2ccccc2)sc1C1(C)CC(c2ccc([N+](=O)[O-])cc2)=NO1 (stereo unspecified)	?	-5%
CCCCc1ccc(NC(=O)C(=O)NCCN2CCN(C(=O)c3ccc([N+](=O)[O-])cc3)CC2)cc1	?	-5%
COc1ccc(NC(=O)Oc2ccccc2)cc1Cl	-13%	2%
COc1ccc(/C=C2\SC(=S)N(CCC(=O)Nc3cccc(O)c3)C2=O)cc1OC	-7%	-6%
Cc1cccc(CSc2nnc(NC(=O)CSc3nnc(C)s3)s2)c1	-21%	0%
COc1cccc(C2CC(=O)Nc3cc(OC)c(OC)c(OC)c32)c1OC(C)C (stereo unspecified)	?	-2%
CCOC(=O)C1CCN(C(=O)CCc2c(C)nc3ncnn3c2C)CC1	-4%	-4%
CS(=O)(=O)c1ccc(C(=O)Nc2cccc(-c3nc4ccccc4[nH]3)c2)cc1	?	-7%
Cc1nn(C)c(C)c1NC(=O)CC12CC3CC(CC(C3)C1)C2	?	-3%
CCc1ccccc1NC(=O)c1noc(C(C)C)c1[N+](=O)[O-]	15µM*	-6%
Cc1ccc(C2(C)NC(=O)N(CC(=O)Nc3c(C)n(C)n(-c4ccccc4)c3=O)C2=O)cc1 (stereo unspecified)	-10%	1%
COc1ccc(C2N3CC4(C)CN2CC(C)(C3)C4=O)cc1OC (stereo unspecified)	14%	-5%
Fc1cccc(Cl)c1CSc1nnc(CNc2ccccc2)o1	?	-12%
Clc1ccc(SCc2cn3ccccc3n2)cc1	-46%	2%
CCOc1cccc2cc(C(=O)NC(C)c3ccccc3)c(=N)oc12 (stereo unspecified)	?	-5%
COc1ccc(C2C3=C(CC(C)(C)CC3=O)N(CC(=O)O)C3=C2C(=O)CC(C)(C)C3)cc1OC	-1%	-3%
CCOc1ccccc1CNC(=O)c1cnc2sc(N3CCCC3)nn2c1=O	15µM*	-6%
O=C(CN1CCC(C(=O)c2ccc3c(c2)OCCO3)CC1)Nc1ccccc1F	?	-7%
COCC(C)NCc1ccc(OC)c(Br)c1 (stereo unspecified)	0%	-21%
Cc1nnc(SCC(=O)N(C)Cc2ccccc2)[nH]c1=O	-19%	-3%
CC(C)=C(NC(=O)c1ccccc1)C(=O)N/N=C/c1ccc(O)cc1	-6%	-1%
CCCC1C2C(=O)N(c3ccccc3OC)C(=O)C2ON1c1ccccc1 (stereo unspecified)	-18%	-2%
CN(C)CCNC(=O)Nc1ccc(F)cc1F	5%	-10%
COc1ccc2nc(SCc3cccnc3)c(C#N)cc2c1	11%	0%
CCCCOc1ccc(C2/C(=C(/O)c3ccc4c(c3)CC(C)O4)C(=O)C(=O)N2CCCN2CCOCC2)cc1OC (stereo unspecified)	?	-11%
CN(C)CCNC(=O)Cc1ccc([N+](=O)[O-])cc1	-2%	2%
O=C(Nc1ccc2oc(-c3ccccc3)nc2c1)c1cccs1	?	-15%
CC(=O)NN1C(=O)/C(=C\c2ccccc2)SC1=S	?	-12%
O=c1c2cc(N3CCOCC3)ccc2[nH]c(=S)n1CC1CCCO1 (stereo unspecified)	-2%	?
COCCNC(=O)Cc1ccc(F)cc1	-1%	-1%
COC(=O)C(=NNc1c(C)n(C)n(-c2ccccc2)c1=O)C(=O)OC	0%	16%
CNC(=O)c1ccc(C)c(NC(=O)C2=C(C)OCCS2)c1	-2%	0%
Nc1nonc1-n1nnc(C(=O)N/N=C/c2ccc3c(c2)OCO3)c1-c1ccccc1	14%	-1%
CSCCC(NC(=O)c1ccco1)C(=O)N1CCN(c2ccccc2O)CC1 (stereo unspecified)	-14%	0%
O=c1oc2ccccc2c(NC2CCCCC2)c1NS(=O)(=O)c1ccc(Cl)cc1	-24%	-22%
COc1cccc(C(=O)CSc2nnc(-c3ccco3)n2CC2CCCO2)c1 (stereo unspecified)	-14%	1%
O=C(Nc1ccccc1O)c1ccc(C(=O)c2ccccc2)o1	?	-3%

Additional records follow:
mol	DT40 TDP1 CPT	GCN5L2 inh
O=C(Nc1cccc(F)c1)c1cc(S(=O)(=O)N2CCC(C(=O)O)CC2)ccc1F	-3%	4%
O=C(CCC(=O)N1Cc2ccccc2Oc2ncccc21)NCc1cccc(Cl)c1	?	-15%
O=C(COc1ccc(Cl)cc1)N1CCN(c2ccc([N+](=O)[O-])c(N3CCCCC3)c2)CC1	?	-6%
CN(C)S(=O)(=O)c1ccc2oc(SCC(N)=O)nc2c1	-19%	-6%
CC(NC(=O)c1cccc(C(F)(F)F)c1)C1CCCO1 (stereo unspecified)	3%	-8%
CC(C)OC(=O)CSc1nnc(-c2cnccn2)n1-c1ccc(Cl)cc1	-10%	-17%
Cc1ccc(C23OC(=O)C(C)(C)C2OC(=O)C3(C)C)cc1 (stereo unspecified)	0%	-2%
Cc1ccc(-n2c(C)nc3ncnc(-c4ccccc4)c32)cc1	-6%	1%
O=C(CCNS(=O)(=O)c1ccccc1)OCC(=O)c1ccc[nH]1	1%	1%
C/C(CC(=O)Nc1ccc2c(c1)OCCO2)=N\NC(=O)c1cccc(O)c1	0%	-8%

Rewritten with values under each structure: entries from further up
Every second line gives: DT40 TDP1 CPT | GCN5L2 inh
O=C(CCC(=O)N1Cc2ccccc2Oc2ncccc21)NCc1cccc(Cl)c1
→ ? | -15%
O=C(COc1ccc(Cl)cc1)N1CCN(c2ccc([N+](=O)[O-])c(N3CCCCC3)c2)CC1
→ ? | -6%
O=C(CCNS(=O)(=O)c1ccccc1)OCC(=O)c1ccc[nH]1
→ 1% | 1%
C/C(CC(=O)Nc1ccc2c(c1)OCCO2)=N\NC(=O)c1cccc(O)c1
→ 0% | -8%
Cc1ccc(C23OC(=O)C(C)(C)C2OC(=O)C3(C)C)cc1 (stereo unspecified)
→ 0% | -2%
CN(C)S(=O)(=O)c1ccc2oc(SCC(N)=O)nc2c1
→ -19% | -6%
Cc1ccc(-n2c(C)nc3ncnc(-c4ccccc4)c32)cc1
→ -6% | 1%

More entries follow.
mol	DT40 TDP1 CPT	GCN5L2 inh
COC(=O)CSc1nc2ccc(C)cc2cc1C#N	-14%	-9%
Cc1cc(C)cc(Nc2c3c(nc4ncnn24)CCC3)c1	-20%	?
COn1c(-c2ccc(C)cc2)nc2ncccc21	25%	-13%
CCOC(=O)N1CCC2(CC1)CC(=O)c1cc(O)ccc1O2	?	-1%
Cc1cccc(C(=O)NCCC(=O)Nc2ccc(F)c([N+](=O)[O-])c2)c1	?	-2%
O=C(Nc1ccccc1F)NC1CCCc2ccccc21 (stereo unspecified)	1%	-6%
Cc1csc(/C(C#N)=N/O)n1	15%	-5%
CCOc1ccc(N(C(=O)c2snc(C(N)=O)c2N)C(CC)C(=O)NC2CCCC2)cc1 (stereo unspecified)	-20%	3%
COc1cc(OC)c(C2C(C(=O)Nc3ccccc3)=C(C)Nc3ncnn32)cc1OC (stereo unspecified)	-11%&-14%	-3%
O=C(O)CNS(=O)(=O)c1ccc(F)cc1	-11%	-23%
CC(C)[C@@H](CO)NS(=O)(=O)c1ccc(Br)cc1F	6%	-6%
CCCS(=O)(=O)c1nc(S(=O)(=O)c2ccc(C)cc2)c(N2CCCC(C)C2)s1 (stereo unspecified)	?	-5%
C=CCNC(=O)/C(C#N)=C/c1c(N(Cc2ccccc2)Cc2ccccc2)nc2ccccn2c1=O	?	-11%
Cc1ccc(CCNC(=O)C2CCC(=O)N2C2CCCC2)cc1 (stereo unspecified)	-5%	-4%
COc1cccc(OCCn2cccc2/C=C2/C(=N)N3OC(C)=CC3=NC2=O)c1	-9%	-13%
OCC[C@@H]1C[C@@H](O)[C@H](O)[C@]2(Cc3ccccc3CCO2)O1	-16%	-2%
Cc1cc(NC(=O)CSc2nnc(-c3ccc(Br)o3)n2Cc2ccccc2)no1	?	-4%
Cc1ccc(NC(=O)/C=C2\NC(=O)CS2)cc1	20%	-7%
CC1Cc2ccccc2N1C(=O)CSc1nnc(CSc2ncccn2)n1C (stereo unspecified)	-8%	2%
COc1cc2[nH]c(-c3cccc(F)c3)cc(=O)c2cc1OC	?	-3%
COc1ccccc1CNC(=O)Cn1cc([N+](=O)[O-])ccc1=O	-6%	1%
CC(=O)C1=C(C)N(Cc2ccccc2)C(=O)N[C@H]1c1ccco1	3%	9%
CCOC(=O)c1cc(S(=O)(=O)Nc2cccc(OC)c2)cn1C	21µM*	2%
Cc1cc2ccccn2c1C(=O)c1nc(NCc2ccco2)ncc1Cl	?	-13%
CCOC(=O)c1[nH]c(C(=O)O)c(OC(=O)CC)c1C	25%	0%
CC(C)(C)C(=O)NCCc1nc2ccccc2n1CC(=O)c1ccc(Cl)cc1	?	4%
NC(=O)NC(=O)CSc1ccccc1	8%	-2%
CCCS(=O)(=O)N1CC(=O)N(c2ccccc2C)C(C)(C(=O)NC2CCCCC2)C1 (stereo unspecified)	-13%	-12%
O=C(COC(=O)c1ccc(Cl)c(S(=O)(=O)N2CCCCC2)c1)NCC1CCCO1 (stereo unspecified)	-2%	-10%
CCOc1ccc2oc(C(=O)NC(C)(C)CC)c(C)c2c1	?	-9%
CN(C)S(=O)(=O)c1ccc(S(=O)(=O)N(CC(=O)Nc2ccccc2)CC2CCCO2)cc1 (stereo unspecified)	-30%	-3%
CCOc1ccc(CNc2cc(C)nc3nc(-c4cccc(C)c4)nn23)cc1OC	?	-1%
O=C(O)c1cc(-c2ccccc2Cl)n(-c2ccc(F)cc2)n1	6%	21%
COc1ccc(/C=C/C(=O)Nc2nc(C)c(C(=O)N(C)C)s2)cc1OC	-16%	-8%
CCOc1ccc(S(=O)(=O)NC2CC2)cc1	2%	-11%
COC(C(=O)Nc1ccnn1C1CCN(Cc2ccc(C)s2)CC1)c1ccccc1 (stereo unspecified)	-12%	?
O=C(NC1CCCCC1)C(c1ccncc1)N(Cc1ccc2c(c1)OCO2)C(=O)C(F)(F)F (stereo unspecified)	?	-1%
COc1cc(OC)cc(-c2nc3nc(C)c(CCC(=O)NCCC(C)C)c(C)n3n2)c1	4%	-6%
COc1cccc(C(C(=O)NC(C)(C)C)N(C(=O)CCC(=O)Nc2cc(C)on2)C(C)(C)C)c1OC (stereo unspecified)	?	-10%
CCC(C)(C)n1nnnc1CN1CCN(c2nc3cc(OC)ccc3cc2C#N)CC1	?	-10%
Cc1nn(C)cc1S(=O)(=O)N1CCN(c2ccccc2)CC1	-2%	-1%
CCN(CC(=O)Nc1ccc(NC(C)=O)cc1)C(=O)c1cc2c(s1)CCCC2	9%	-2%
C=CCn1c(=S)[nH]c2scc(-c3ccc(C)o3)c2c1=O	?	-15%
COc1ccc(Cc2nc3ccc(C(=O)NCCc4ccccn4)cc3o2)cc1OC	-20%	3%
Cn1cc(CNCCN2CCCCC2=O)c(-c2cccc(Cl)c2)n1	-2%	1%
CC1(C)Cc2noc(N)c2C(C)(C)N1OC(=O)c1cccs1	-3%	-6%
COc1ccccc1CNC(=O)c1cnc2sc(N3CCCCC3)nn2c1=O	?	0%
CC[C@]12c3[nH]c4cc(CCC(=O)N(C)C)ccc4c3CCN1C(=O)[C@@H](CC(=O)NCC13CC4CC(CC(C4)C1)C3)C[C@@H]2C(=O)N1CCN(C(=O)C2CC2)CC1	?	0%
COc1ccc2oc(C(=O)OCC(=O)Nc3ccccc3OC)c(C)c2c1	-13%	-16%
O=C1CCC(C(=O)N2CCCCO2)CN1CCc1ccc(Cl)cc1 (stereo unspecified)	2%	-4%

Some of the compounds tested; most or all hits stand in other tables.
